KCNQ2 pot = KCNQ2 (rat) channel potentiation; CHO-K1 KCNQ2, FluxOR thallium flux fluorescence; hits give high values; O88943; 310,000 tested, 0.54% active; AID 2239; B-score at 10 µM;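 active means fluorescence ratio B-score at least 3 SD of library B-scores, with initial fluorescence B-score within 3 SD, cut at about 5.3 in these data; same plate scores as AID 2156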;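 further: B-score of peak minus minimum over baseline fluorescence ratio after K+ and Tl+ stimulus; positive B-score means potentiation of KCNQ2 with more thallium influx and brighter signal; only the inactives scoring about 0 or higher are listed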
Target sequence (O88943 whole entry, looked up): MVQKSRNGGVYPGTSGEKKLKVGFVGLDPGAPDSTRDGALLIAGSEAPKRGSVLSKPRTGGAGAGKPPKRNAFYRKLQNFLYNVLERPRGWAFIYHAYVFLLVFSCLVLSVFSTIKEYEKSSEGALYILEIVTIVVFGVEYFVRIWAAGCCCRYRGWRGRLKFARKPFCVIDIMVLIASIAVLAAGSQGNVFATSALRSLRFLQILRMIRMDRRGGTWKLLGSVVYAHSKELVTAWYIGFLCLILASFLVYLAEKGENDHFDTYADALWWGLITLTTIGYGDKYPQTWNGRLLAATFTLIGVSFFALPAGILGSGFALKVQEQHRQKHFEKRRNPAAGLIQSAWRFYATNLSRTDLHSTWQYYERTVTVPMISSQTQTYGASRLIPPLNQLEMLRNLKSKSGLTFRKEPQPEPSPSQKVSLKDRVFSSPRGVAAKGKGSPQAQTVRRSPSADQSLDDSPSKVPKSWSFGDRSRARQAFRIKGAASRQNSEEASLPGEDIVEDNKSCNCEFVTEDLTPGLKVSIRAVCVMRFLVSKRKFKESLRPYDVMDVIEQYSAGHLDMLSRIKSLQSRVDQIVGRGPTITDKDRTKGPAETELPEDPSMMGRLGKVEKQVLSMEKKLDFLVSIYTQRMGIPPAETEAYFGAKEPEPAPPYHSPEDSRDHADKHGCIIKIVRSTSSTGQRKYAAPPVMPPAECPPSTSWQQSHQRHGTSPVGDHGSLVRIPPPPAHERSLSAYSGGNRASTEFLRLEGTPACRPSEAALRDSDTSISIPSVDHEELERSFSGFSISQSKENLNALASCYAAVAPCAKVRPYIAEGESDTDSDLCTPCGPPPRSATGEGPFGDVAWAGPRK
KCNQ2 pot baseline = recorded beside KCNQ2 pot, whose call it bears; B-score; compound at 10 µM; measured here: initial fluorescence intensity artifact check;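 brightness before thallium and not channel activity; 0 = typical well and far values either way flag optical interference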
Numbers without * were called inactive. Not all compounds are listed; count on the stated rates, not on these rows.

`Cc1cc(C)n(C(=O)c2ccc(C)c(F)c2F)n1` gave KCNQ2 pot 0.89 and KCNQ2 pot baseline -0.06.
For CN(/N=C/c1cc([N+](=O)[O-])ccc1O)c1ccccc1 the results were KCNQ2 pot 0.77 and KCNQ2 pot baseline -1.22.
`CNC(=S)N/N=C/c1ccco1` gave KCNQ2 pot 0.05 and KCNQ2 pot baseline 1.21.
CC(C)n1c(SC2CCOC2=O)nc2ccccc21 (stereo not given) was read as KCNQ2 pot 0.02 and KCNQ2 pot baseline 0.14.
For Cc1cc(S(=O)(=O)NCCc2ccccc2)ccc1-n1cnnn1 the results were KCNQ2 pot 0.11 and KCNQ2 pot baseline 0.6.
For CN(Cc1ccsc1)C(=O)Cn1cc(Br)ccc1=O the results were KCNQ2 pot 1.34 and KCNQ2 pot baseline -1.27.
For Cc1cccc(-c2noc(CCC(=O)NCCc3ccccc3)n2)c1 the results were KCNQ2 pot 0.39 and KCNQ2 pot baseline -0.89.
`Cc1cccc(C)c1N1CCN(CCn2c(=S)[nH]c3ccccc3c2=O)CC1` gave KCNQ2 pot 0.71 and KCNQ2 pot baseline -2.05.
CC(C)(C)C(=O)NC(=S)Nc1ccccc1C(=O)Nc1ccccc1 was read as KCNQ2 pot 0.2 and KCNQ2 pot baseline -1.11.
CC12CCC(C(=O)Nc3nccs3)(OC1=O)C2(C)C (stereo not given) was read as KCNQ2 pot 0.02 and KCNQ2 pot baseline 0.09.
O=C(NC1CCS(=O)(=O)C1)C1CCCN(S(=O)(=O)c2ccc(Cl)cc2)C1 (stereo not given) was read as KCNQ2 pot 1.79 and KCNQ2 pot baseline -0.38.
`CCCCNC(=O)CN1C(=O)COc2ccc(S(=O)(=O)N3CCCCCC3)cc21` gave KCNQ2 pot 2.18 and KCNQ2 pot baseline 1.18.
For CC(C)(C)c1ccc(OCCNC(=S)NC(=O)c2cccnc2)cc1 the results were KCNQ2 pot 1.04 and KCNQ2 pot baseline 2.04.
`C=CCN(c1ccc(C(=O)N2CCN(c3ccc(F)cc3)CC2)cc1)S(C)(=O)=O` gave KCNQ2 pot 0.11 and KCNQ2 pot baseline -1.42.
`COc1ccc(C2NC(=O)c3n[nH]c(C)c32)c(OC)c1` (stereo not given) gave KCNQ2 pot 0.03 and KCNQ2 pot baseline -1.42.
O=C(NCC1CCCO1)c1cncc(Br)c1 (stereo not given) was read as KCNQ2 pot 0.52 and KCNQ2 pot baseline -0.53.
For Cc1cc(Nc2ccc(Br)cc2)nc2ccccc12 the results were KCNQ2 pot 0.37 and KCNQ2 pot baseline 0.99.
For Cc1nc2ccccc2nc(=O)c1NNc1ccc([N+](=O)[O-])cc1 the results were KCNQ2 pot 0.14 and KCNQ2 pot baseline -0.27.
CC(C)Oc1ccc(C2CC(=O)N(c3ccc(C(=O)O)cc3)C2=O)cc1 (stereo not given) was read as KCNQ2 pot 0.46 and KCNQ2 pot baseline 0.05.
For Cc1ccc(NC(=O)COC(=O)CCn2c(C)csc2=O)c([N+](=O)[O-])c1 the results were KCNQ2 pot 0.65 and KCNQ2 pot baseline 1.8.
Screening O=C1c2cccc3cccc(c23)C(=O)N1Cc1ccccc1 returned KCNQ2 pot 0.79 and KCNQ2 pot baseline -0.57.
`C=CCc1cccc(CNc2nc3ccccc3n2C)c1O` gave KCNQ2 pot 0.03 and KCNQ2 pot baseline -0.37.
For O=C(CCCCCNC(=O)N1CCn2c1nc1ccccc12)NCc1ccc(F)cc1 the results were KCNQ2 pot 0.65 and KCNQ2 pot baseline -0.18.
For O=C(Cn1nc(-c2ccc3c(c2)OCCO3)ccc1=O)Nc1cccc(NC(=O)c2ccccn2)c1 the results were KCNQ2 pot 1.08 and KCNQ2 pot baseline 0.95.

Some of these compounds in order of molar mass, rising:
For Cc1nc2ccccc2nc(=O)c1NNc1ccc([N+](=O)[O-])cc1 the results were KCNQ2 pot 0.14 and KCNQ2 pot baseline -0.27.
`C=CCN(c1ccc(C(=O)N2CCN(c3ccc(F)cc3)CC2)cc1)S(C)(=O)=O` gave KCNQ2 pot 0.11 and KCNQ2 pot baseline -1.42.
For O=C(CCCCCNC(=O)N1CCn2c1nc1ccccc12)NCc1ccc(F)cc1 the results were KCNQ2 pot 0.65 and KCNQ2 pot baseline -0.18.

Filtered by structure: the entries above with a halogen (7)
`Cc1cc(C)n(C(=O)c2ccc(C)c(F)c2F)n1` gave KCNQ2 pot 0.89 and KCNQ2 pot baseline -0.06.
For CN(Cc1ccsc1)C(=O)Cn1cc(Br)ccc1=O the results were KCNQ2 pot 1.34 and KCNQ2 pot baseline -1.27.
O=C(NC1CCS(=O)(=O)C1)C1CCCN(S(=O)(=O)c2ccc(Cl)cc2)C1 (stereo not given) was read as KCNQ2 pot 1.79 and KCNQ2 pot baseline -0.38.
`C=CCN(c1ccc(C(=O)N2CCN(c3ccc(F)cc3)CC2)cc1)S(C)(=O)=O` gave KCNQ2 pot 0.11 and KCNQ2 pot baseline -1.42.
O=C(NCC1CCCO1)c1cncc(Br)c1 (stereo not given) was read as KCNQ2 pot 0.52 and KCNQ2 pot baseline -0.53.
For Cc1cc(Nc2ccc(Br)cc2)nc2ccccc12 the results were KCNQ2 pot 0.37 and KCNQ2 pot baseline 0.99.
For O=C(CCCCCNC(=O)N1CCn2c1nc1ccccc12)NCc1ccc(F)cc1 the results were KCNQ2 pot 0.65 and KCNQ2 pot baseline -0.18.

Later entries:
For COc1ccc(CNC(=O)COC(=O)CO/N=C(\C)c2ccc3c(c2)OCO3)cc1 the results were KCNQ2 pot 0.1 and KCNQ2 pot baseline -0.26.
For CC1=NN(c2nc(-c3ccc(F)cc3)cs2)C(=O)C1 the results were KCNQ2 pot 1.27 and KCNQ2 pot baseline -1.03.
Screening Cc1ccc(CNC(=O)C2CC(c3ccc([N+](=O)[O-])cc3)=NO2)cc1 (stereo not given) returned KCNQ2 pot 0.81 and KCNQ2 pot baseline 0.14.
O=C(NC(=S)Nc1cccc(Cl)c1)c1cncc(Br)c1 was read as KCNQ2 pot 1.76 and KCNQ2 pot baseline -1.18.
CCCCn1ccc(O)c(Cc2ccc(F)cc2)c1=O was read as KCNQ2 pot 0.52 and KCNQ2 pot baseline -0.68.
COc1cc(CC(=O)NCc2ccco2)cc(OC)c1OC was read as KCNQ2 pot 0.12 and KCNQ2 pot baseline 0.11.
`Cc1c(Cl)c([N+](=O)[O-])nn1CC(=O)Nc1ccc2c(c1)OCO2` gave KCNQ2 pot 0.71 and KCNQ2 pot baseline 0.58.
For COc1ccc(CNC(=S)Nc2ccc(F)c(Cl)c2)cc1 the results were KCNQ2 pot 0.75 and KCNQ2 pot baseline 0.02.
CCn1nc(C)c(/C=N/NC(=O)Cn2nnnc2N)c1C was read as KCNQ2 pot 0.37 and KCNQ2 pot baseline -1.73.
For Cc1nnc(SCC(=O)Nc2nsc(-c3ccccc3)n2)s1 the results were KCNQ2 pot 0.02 and KCNQ2 pot baseline -2.14.
O=C(CSc1nc2cc(Cl)ccc2s1)NCc1ccc2c(c1)OCO2 was read as KCNQ2 pot 0.06 and KCNQ2 pot baseline 0.
`COc1ccc(N(CC(=O)O)S(C)(=O)=O)cc1OC` gave KCNQ2 pot 1.74 and KCNQ2 pot baseline -2.41.
NC(=O)CSc1nc2scc(-c3ccc(Cl)cc3)c2c(=O)n1Cc1ccccc1 was read as KCNQ2 pot 0.13 and KCNQ2 pot baseline 0.54.
`CCCCC(CCC(=O)O)(C(=O)OCC)c1csc(Nc2ccc(C)cc2)n1` (stereo not given) gave KCNQ2 pot 0.86 and KCNQ2 pot baseline 0.59.
Cc1ccc(CNC(=O)Cn2ncn3cccc3c2=O)cc1 was read as KCNQ2 pot 0.07 and KCNQ2 pot baseline 1.38.
For CCn1c(SCC(=O)Nc2ccccc2Cl)nnc1C1CC1 the results were KCNQ2 pot 0.02 and KCNQ2 pot baseline 2.22.
`CCCCn1nc(C(=O)O)ccc1=O` gave KCNQ2 pot 0.65 and KCNQ2 pot baseline 0.66.
For O=C(Nc1nc2ccccc2s1)c1c(F)cccc1Cl the results were KCNQ2 pot 0.64 and KCNQ2 pot baseline -0.08.
For C=CCN1C(=O)C2(OCCCO2)c2cc(C)ccc21 the results were KCNQ2 pot 0.58 and KCNQ2 pot baseline -0.82.
`O=C(Nc1nccs1)C1CC=CCC1` (stereo not given) gave KCNQ2 pot 0.4 and KCNQ2 pot baseline 1.27.
For COc1ccc(CCNC(=O)COc2ccc(C)nc2[N+](=O)[O-])cc1OC the results were KCNQ2 pot 1.79 and KCNQ2 pot baseline -0.18.
CCCCc1ccc(NS(=O)(=O)c2c(C)n(C)c(=O)n(C)c2=O)cc1 was read as KCNQ2 pot 0.06 and KCNQ2 pot baseline 0.08.
CC(C)(C)NS(=O)(=O)c1ccc(CCC(=O)NCc2cccnc2)cc1 was read as KCNQ2 pot 0.32 and KCNQ2 pot baseline -1.46.
For O=C(N/N=C/c1ccco1)c1ccc(N2CCCC2=O)cc1 the results were KCNQ2 pot 0.38 and KCNQ2 pot baseline -0.39.

The closing two compounds of the section before lead into the next.
CC(C)(C)NS(=O)(=O)c1ccc(CCC(=O)NCc2cccnc2)cc1 was read as KCNQ2 pot 0.32 and KCNQ2 pot baseline -1.46.
For O=C(N/N=C/c1ccco1)c1ccc(N2CCCC2=O)cc1 the results were KCNQ2 pot 0.38 and KCNQ2 pot baseline -0.39.
For CN(C)C(=O)Cn1cc(S(=O)(=O)Cc2ccccc2)c2ccccc21 the results were KCNQ2 pot 1.06 and KCNQ2 pot baseline 0.38.
COc1cc(C(=O)Nc2ccc3nc4n(c(=O)c3c2)CCCCC4)cc(OC)c1OC was read as KCNQ2 pot 0.04 and KCNQ2 pot baseline 0.11.
For O=C(Cn1nnc(-c2cccc(C(F)(F)F)c2)n1)N1CCOCC1 the results were KCNQ2 pot 0.42 and KCNQ2 pot baseline -0.18.
`O=C(O)c1ccc2c(=O)n3c(nc2c1)/C(=C/c1cccc(O)c1)CC3` gave KCNQ2 pot 0.49 and KCNQ2 pot baseline -0.07.
`O=C(Nc1ccccc1)c1ccccc1CSc1ccccc1` gave KCNQ2 pot 0.55 and KCNQ2 pot baseline -1.67.
`COc1ccc(S(=O)(=O)N2CCCC2CNC(=O)C(=O)Nc2ccc(C)cc2)cc1` (stereo not given) gave KCNQ2 pot 0.66 and KCNQ2 pot baseline 1.42.
`Cc1cccc(C)c1OCC(=O)NCc1nnc(SCC(=O)NC2CCCCC2)n1C` gave KCNQ2 pot 0.7 and KCNQ2 pot baseline -0.7.
Screening Cc1ccn2c(NCc3ccc4c(c3)OCO4)c(-c3ccc(O)cc3)nc2c1 returned KCNQ2 pot 1.84 and KCNQ2 pot baseline -2.04.
Screening CCc1ccc(C(=O)CN(C#N)c2nc(C)cc(C)n2)cc1 returned KCNQ2 pot 0.05 and KCNQ2 pot baseline -1.08.
Cc1[nH]n(-c2ccccc2)c(=O)c1C(c1cccc([N+](=O)[O-])c1)c1c(C)[nH]n(-c2ccccc2)c1=O was read as KCNQ2 pot 0.12 and KCNQ2 pot baseline -0.02.
For Cc1nc(-c2ccccc2)sc1C1(C)CC(c2cccc(F)c2)=NO1 (stereo not given) the results were KCNQ2 pot 0.89 and KCNQ2 pot baseline -0.76.
Cc1ccc(S(=O)(=O)NCC(=O)N2CCCCC2)cc1 was read as KCNQ2 pot 0.02 and KCNQ2 pot baseline -0.45.
For NNC(=O)Cc1csc(-c2ccccc2)n1 the results were KCNQ2 pot 0.14 and KCNQ2 pot baseline 2.87.
`COC(=O)C1=C(C)NC2=C(C(=O)CC(C)(C)C2)C1c1cnn(C)c1C` (stereo not given) gave KCNQ2 pot 0.19 and KCNQ2 pot baseline -2.48.
`O=C(O)/C=C\c1cc2c(cc1[N+](=O)[O-])OCO2` gave KCNQ2 pot 0.45 and KCNQ2 pot baseline 0.97.
Cc1ccc(-c2csc(N3C(=N)SCC3=O)n2)cc1 was read as KCNQ2 pot 0.11 and KCNQ2 pot baseline -1.11.
CCCOc1cccc(C2/C(=C(/O)c3ccc(OC)cc3)C(=O)C(=O)N2CCN(C)C)c1 (stereo not given) was read as KCNQ2 pot 0.33 and KCNQ2 pot baseline 0.4.
Screening COc1ccccc1NC(=S)N1CCCCCC1 returned KCNQ2 pot 0.21 and KCNQ2 pot baseline -2.32.
For Cc1nc(SCC(=O)c2ccc(F)cc2)n[nH]1 the results were KCNQ2 pot 1.91 and KCNQ2 pot baseline -2.04.
`N#Cc1c(NCc2ccccc2)ccnc1NCc1cccnc1` gave KCNQ2 pot 1.86 and KCNQ2 pot baseline 0.37.
`O=C(Cn1c(CC(=O)N2CCOCC2)nc2ccccc21)Nc1ccc2c(c1)OC(F)(F)O2` gave KCNQ2 pot 0.84 and KCNQ2 pot baseline 0.05.
Screening COc1ccc(CCNS(=O)(=O)c2cnc(Cl)c(Br)c2)cc1OC returned KCNQ2 pot 0.46 and KCNQ2 pot baseline -0.49.
CCN1CCN(S(=O)(=O)c2ccc(Cl)c(C(=O)NCc3ccco3)c2)CC1 was read as KCNQ2 pot 0.18 and KCNQ2 pot baseline 0.61.
For CCCP(=O)(CC(=O)O)c1ccccc1 (stereo not given) the results were KCNQ2 pot 1.11 and KCNQ2 pot baseline 0.76.
CCCCOC(=O)c1ccc(NC(=O)C(=O)NCc2ccco2)cc1 was read as KCNQ2 pot 0.13 and KCNQ2 pot baseline 0.87.
Screening O=C(O)c1ccc(/C=C2\SC(=S)N(NC(=O)c3ccccc3[N+](=O)[O-])C2=O)cc1 returned KCNQ2 pot 0.7 and KCNQ2 pot baseline 1.1.
`S=C(NC1CCCCC1)N1CCCCC1` gave KCNQ2 pot 0.22 and KCNQ2 pot baseline -0.48.
OC(COC(c1ccccc1)c1ccccc1)CN1CCOCC1 (stereo not given) was read as KCNQ2 pot 0.14 and KCNQ2 pot baseline -0.14.
Screening N/C(=N\OC(=O)/C=C/c1ccccc1)c1ccncc1 returned KCNQ2 pot 0.02 and KCNQ2 pot baseline -0.64.
`NC1=NC(=Nc2cccc(S(=O)(=O)N3CCOCC3)c2)c2ccccc21` gave KCNQ2 pot 0.38 and KCNQ2 pot baseline -0.47.
For CC#CCN(Cc1ccco1)C(=O)C1CCC(=O)N(Cc2ccccc2F)C1 (stereo not given) the results were KCNQ2 pot 2.34 and KCNQ2 pot baseline -2.79.

Assay outcomes as filed in PubChem BioAssay.
